Beta2AR agonist – human beta-2 adrenergic receptor agonism by FAP. Am2.2-beta2AR cells, FAP receptor internalization, flow cytometry; reference of the scale not given here. response, % (test concentration not listed). 340,000 tested, 0.43% active;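 active = response above a set limit, near 3 SD of response in nonfluorescent compounds, cut at about 42% in these data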;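 note: stock transfer was 100 nL into about 11 µL; a reference agonist was the positive control; negative values mostly stem from fluorescent compounds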
Target sequence (P07550 whole entry, looked up): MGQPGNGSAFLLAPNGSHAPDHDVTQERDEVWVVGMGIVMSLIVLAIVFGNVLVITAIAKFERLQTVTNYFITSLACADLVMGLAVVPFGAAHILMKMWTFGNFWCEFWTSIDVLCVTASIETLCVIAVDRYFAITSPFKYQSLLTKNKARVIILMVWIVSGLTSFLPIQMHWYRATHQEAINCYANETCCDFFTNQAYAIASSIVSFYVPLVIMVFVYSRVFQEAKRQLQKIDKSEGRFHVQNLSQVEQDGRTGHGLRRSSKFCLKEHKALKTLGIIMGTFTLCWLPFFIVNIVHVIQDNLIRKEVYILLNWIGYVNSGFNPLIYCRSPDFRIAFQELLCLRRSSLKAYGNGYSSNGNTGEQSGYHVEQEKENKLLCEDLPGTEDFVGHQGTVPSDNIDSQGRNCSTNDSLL
Ecoli growth – inhibitors of Escherichia coli growth; OD600, 23 h; stronger effect = lower value; OD600 absorbance (no concentration beside the values); 330,000 tested, 0.21% active; AID 1053175;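 active = OD600 absorbance below the run mean of sample wells minus 3.6 SD, in any replicate, cut at about 0.56 in these data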;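 note: stock transfer was 300 nL into about 60 µL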
LANA-H2A inh – blocks KSHV LANA binding to histone H2A/H2B; inhibition, % (concentration not given with the values); 320,000 tested, 0.6% active; cell-free LANA-H2A/H2B peptide, fluorescence polarization; in the data active = inhibition mostly above about 10%, no sharp cut-off; inactive = mostly below about 6.7%;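 note: stock transfer was 7.5 nL into about 10 µL; 0% = median of vehicle wells and 100% = median of positive control wells; one replicate is shown; the record names a cut of 25% in any replicate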
Vif A3G – HIV-1 Vif–A3G interaction blockers – biochemical, TR-FRET, GST-Vif 1-94, biotin-A3G peptide, dose response retest, primary screen (AID 1117319) | TR-FRET GST-Vif / biotin-A3G peptide binding; higher % means a stronger effect; test concentration not given here; strong numbers were not always called active | inhibition, %; hits with a dose series show IC50 in µM | 260,000 tested, 0.57% active;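 active = above the screen mean plus three standard deviations and confirmed in dose response; inconclusive = results disagree or hit not tested in dose response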;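 note: Vif residues 1-94 fused to GST binding biotinylated APOBEC3G peptide 110-148; 0% = full assay without inhibitor and 100% = GST in place of GST-Vif; retest series ran down from 100 µM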
A1 inh – inhibitors of the anti-apoptotic protein A1, read as caspase activation. MEF A1-2A-BIM cells, Caspase-Glo 3/7 luminescence, 3 h; percent of clofoctol response, vehicle zero. caspase activation, % (test concentration not listed). 330,000 tested, 0.066% active;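 active = over half of replicate activation scores above 10%, or exactly half above 10 with the replicate mean above 10; inconclusive = replicate mean below 10 yet half the replicates above 10; inactive = over half of replicates below 10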;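 note: wells of about 30 µL received 50 nL stock; many hits fall short of the cut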
UCH37 inh – human UCH37 deubiquitinating enzyme inhibition; Q9Y5K5; AID 588478; 330,000 tested, 0.33% active; purified proteasome/UCH37, Ub-AMC cleavage fluorescence; inhibition, % (no concentration beside the values);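 active = mean of two replicates above 20%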;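 note: 0% = compound-free wells with enzyme and 100% = wells lacking proteasome; stock transfer was 100 nL into about 20 µL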
Target sequence (Q9Y5K5 whole entry, looked up): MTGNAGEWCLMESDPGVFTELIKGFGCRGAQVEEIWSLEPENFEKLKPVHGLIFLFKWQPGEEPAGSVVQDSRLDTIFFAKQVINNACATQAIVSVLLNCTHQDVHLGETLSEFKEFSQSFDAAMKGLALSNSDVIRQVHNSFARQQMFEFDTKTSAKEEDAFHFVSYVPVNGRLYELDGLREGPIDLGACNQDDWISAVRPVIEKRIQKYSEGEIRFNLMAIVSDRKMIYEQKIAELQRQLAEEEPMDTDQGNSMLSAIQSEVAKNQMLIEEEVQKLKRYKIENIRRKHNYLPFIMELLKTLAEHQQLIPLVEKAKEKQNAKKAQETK
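assay system = human UCH37 enzyme supplied as purified proteasome complex | amount = proteasome at 0.15 nM in the dispensed enzyme solution | schedule = 30 min compound-proteasome preincubation then 25 min substrate reaction, room temperature | measured by = fluorescence, ex 355 nm, em 460 nm | benchmarks = no-proteasome wells (full inhibition) and compound-free wells (no inhibition)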
HNF4A DNA FP – change in binding of human HNF4 alpha to DNA; activity change, % at 10 µM; 360,000 tested, 0.3% active; P41235; AID 1224865; HNF4a-FITC DNA binding, fluorescence polarization, 1 h; in the data active = activity change above about 30%, passing the limit was not always enough;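 note: controls were the assay level and a saturating level of protein; the project sought stronger binding though the title names inhibitors; some compounds called inactive have numbers as strong as hits; positive values seem to mean higher polarization but the record does not say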
* hit, by the source's call; i = inactive; ? = inconclusive; nt = no result given; & = joins results of further samples.

No.	canonical_smiles	LANA-H2A inh	Beta2AR agonist	A1 inh	Vif A3G	HNF4A DNA FP	Ecoli growth	UCH37 inh
1	C=CCN(CC=C)CCCOc1ccc(C)cc1OC	7.0	3	1.0	-3%	-0.9	0.72	3.7
2	NC(=O)/C(N=Nc1ccccc1)=N/Nc1ccccc1	-5.0	-10	1.0	nt	4.4	nt	nt
3	CCCCNC(=O)c1cc2cccc([N+](=O)[O-])c2[nH]1	2.6	-2	-0.7	nt	-0.2	0.65	8.4
4	Cc1ccc(CNC(=O)CCNC(=O)N2CCn3c2nc2ccccc23)cc1	-7.0	-7	1.0	nt	2.3	0.7	2.0
5	CCCCC1(C)OC(=O)C(=Cc2ccc(N(CC)CC)cc2)C(=O)O1 (stereo unspecified)	2.1	5	0.3	4%	7.4	0.71	0.5
6	CC(C)C(NC(=O)Cc1ccccc1)C(=O)N1CCN(c2cccc(Cl)c2)CC1 (stereo unspecified)	-6.7	9	1.5	nt	1.1	0.65	2.0
7	O=C(O)CCC(=O)N1CCN(c2nc3ccccc3s2)CC1	-1.5	6	0.2	-13%	-3.8	0.75	2.8
8	CCCC(=O)N1CCCC(c2nc(-c3cccc(OC)c3)no2)C1 (stereo unspecified)	2.9	0	-10	-8%	-1.8	0.68	3.1
9	CCNC(=O)c1ccc(NC(=O)CC2SC(N3CCCC3)=NC2=O)cc1 (stereo unspecified)	-7.0	-5	0.7	2%	2.0	0.64	2.2
10	CCCN(CCC)C(=O)Cn1c(=O)n(CCCCC(=O)NCc2ccco2)c(=O)c2ccccc21	-2.4	-8	0.0	-6%	-3.1	0.71	4.0
11	Cc1noc(C)c1COC(=O)CCC(=O)c1ccc(F)cc1	4.9	-4	1.5	13%	-3.0	0.67	6.2
12	O=C(Cn1c(=O)n(CCCC(=O)NC2CCCC2)c(=O)c2ccccc21)NCCC1=CCCCC1	-2.7	-6	0.2	-1%&-5%	3.9	0.73	1.2
13	Cc1cccc([N+](=O)[O-])c1C(=O)O	19*	1	0.1	nt	-1.4	0.62	2.2
14	CCOC(=O)c1c(S(=O)(=O)NCC(=O)Nc2cccc(C)n2)c(C)n(C)c1C	4.0	1	-0.3	-6%	0.1	0.69	1.7
15	Cc1ccc(C)c(NC(=O)CN(C)C(=O)C2CCN(C(=O)Nc3ccccc3)CC2)c1	-1.7	4	0.2	3%	-1.6	0.67	5.2
16	O=C(O)CC1(CC(=O)Nc2cccc(C(F)(F)F)c2)CCCC1	5.9	-4	0.4	5%	-3.3	0.68	5.4
17	CC(=O)Oc1c(-c2ccco2)oc2ccccc2c1=O	-4.1	14	-1.0	-3%	-3.8	0.63	-88
18	O=C(NC1CCCC1)c1ccc(Cl)c(S(=O)(=O)N2CCOCC2)c1	2.8	1	-0.7	0%	1.0	0.67	3.6
19	COc1cc(-c2[nH]nc3c2C(c2ccco2)C(C#N)=C(N)O3)cc(OC)c1OC (stereo unspecified)	2.8	5	0.4	nt	-2.5	0.71	0.1
20	CCCCn1c(-c2ccco2)nc2oc3ccccc3c(=O)c2c1=O	-2.2	-12	-1.0	nt	1.8	0.64	8.1
21	O=C(c1ccc(F)cc1)C(CN1CCOCC1)c1ccccc1 (stereo unspecified)	2.1	12	-0.1	5%	-1.4	0.6	5.1
22	CCOC(=O)c1ccc(NC(=S)NCCCn2ccnc2)cc1	0.6	20	0.5	3%	1.7	0.65	-2.3
23	Cc1ccc(C)c(NC(=O)COC(=O)c2nc(Cl)ccc2Cl)c1	-0.6	1	1.0	-4%	0.8	0.67	2.1
24	Cc1cc(C)n2nc(C(=O)Nc3cccc(S(=O)(=O)N4CCCC4)c3)nc2n1	-0.7	-7	1.0	nt	0.6	0.68	1.4
25	COc1ccc(CSc2nnnn2-c2ccc(O)cc2)cc1F	2.2	-2	-0.6	-9%	-0.1	0.63	1.6
26	Cn1cccc1Cc1nnc(SCC(=O)Nc2nccs2)n1CCc1ccccc1	-2.0	-6	1.0	22%	3.5	0.73	3.2
27	COc1ccc(COc2cccc3ccc(C)nc23)cc1F	1.9	-6	-0.5	nt	-1.7	0.67	-1.4
28	Nn1c(Nc2ccc(Cl)cc2)nncc1=O	2.9	0	-0.3	-2%	2.6	0.67	5.1
29	O=C(Nc1ccc(F)cc1)c1c(Cl)nc2ccccn12	4.8	-5	0.0	-9%	2.0	0.7	-0.9
30	COc1cccc(C(=O)NCc2nnc(SCC(=O)Nc3nccs3)n2-c2cccc(C)c2)c1	0.7	-11	-0.1	3%&-1%	-0.2	0.71	-0.6

Full records, looked up by structure. Order of screens: LANA-H2A inh	Beta2AR agonist	A1 inh	Vif A3G	HNF4A DNA FP	Ecoli growth	UCH37 inh
`O=C(Cn1c(=O)n(CCCC(=O)NC2CCCC2)c(=O)c2ccccc21)NCCC1=CCCCC1` across the screens: -2.7	-6	0.2	-1%&-5%	3.9	0.73	1.2
`CC(C)C(NC(=O)Cc1ccccc1)C(=O)N1CCN(c2cccc(Cl)c2)CC1` (stereo unspecified) across the screens: -6.7	9	1.5	nt	1.1	0.65	2.0

Additional records:
No.	canonical_smiles	LANA-H2A inh	Beta2AR agonist	A1 inh	Vif A3G	HNF4A DNA FP	Ecoli growth	UCH37 inh
31	CC(C)(C)OC(=O)NCCCC[C@@H](C(=O)NCCCCCCCCCCC(=O)N1CCN(C(=O)OC(C)(C)C)CC1)n1cc(CCO)nn1	1.0	15	-0.1	nt	0.9	nt	3.1
32	O=C(Cn1ncc2c([nH]c3ccccc32)c1=O)Nc1ccc(CN2CCCCC2)cc1	0.5	9	-0.4	nt	6.1	0.7	3.9
33	CCCC(=O)Nc1cc(=O)n(C)c(=O)n1C	0.6	7	0.0	7%	-0.7	0.67	2.2
34	CC1CCC(C(C)C)C(OCC(O)CN2CCCC(C)C2)C1 (stereo unspecified)	-0.1	14	-0.6	0%	6.6	0.63	2.4
35	C(=N\Nc1nc(Nc2ccccc2)nc(Nc2ccccc2)n1)/c1cccnc1	0.4	3	2.8	nt	-3.0	nt	nt
36	CCN(CC)c1ccc(NC(=O)C2=CC=CN3CCS(=O)(=O)N=C23)cc1	4.7	9	0.4	11%	9.3	0.66	8.9
37	COc1ccc2c(c1)CCCC21NC(=O)N(CC(=O)NCc2cccs2)C1=O (stereo unspecified)	0.8	-8	0.4	1%	1.8	0.68	4.3
38	COc1ccccc1NC(=O)c1cc(S(=O)(=O)N2CCOCC2)ccc1Cl	0.9	-7	0.7	-6%	-0.1	0.72	2.9
39	COc1ccc(CN(CC(=O)NCc2ccc(F)cc2)C(=O)c2ccco2)cc1	-3.1	0	1.1	-3%	-1.6	0.64	-0.8
40	CCn1c(=S)sc2c(=O)n(CC(=O)Nc3ccc(Cl)cc3)c(C)nc21	-1.4	-5	0.0	nt	-4.2	0.69	4.0
41	COc1ccc(N2CCN(c3oc(COc4ccc(Cl)cc4)nc3C#N)CC2)cc1	1.4	-6	0.4	10%&2%	-3.7	0.8	-3.7
42	O=[N+]([O-])c1cc(C(F)(F)F)ccc1N1CCN(S(=O)(=O)c2ccc3c(c2)CCCC3)CC1	2.3	0	0.5	0%	-1.4	0.75	1.8
43	CCCC1=NN2C(=N)/C(=C\c3ccc(SCc4ccco4)o3)C(=O)N=C2S1	-11	-10	-1.5	8.1µM*	30	nt	nt
44	O=C(c1ccc(NS(=O)(=O)c2ccc3[nH]c(=O)[nH]c3c2)cc1)N1CCCCC1	1.8	-11	1.4	1%	-2.3	0.71	2.3
45	O=C(c1cc(COc2ccc(F)cc2F)on1)N1CC[C@@H]2CCCC[C@H]2C1	2.2	14	-0.9	nt	-2.7	0.69	2.5
46	O=C(Nc1ccc(S(=O)(=O)O)cc1)c1ccc2c(c1)S(=O)(=O)c1ccccc1C2=O	-2.4	-5	0.3	nt	2.0	0.7	3.6
47	C=C1C(=O)O[C@@]23[C@H]1CC[C@@H](C)[C@@H]2CC[C@@]1(C)O[C@@H]31	5.0	16	-0.1	nt	1.7	nt	1.1
48	COc1cc(NC(=O)C2CCCN(S(=O)(=O)c3cccc4nsnc34)C2)cc(OC)c1 (stereo unspecified)	0.2	2	0.0	-241%	-2.2	0.74	1.3
49	O=C(c1ccc(Cn2c(=S)[nH]c3ccc(Br)cc3c2=O)cc1)N1CCN(C2CCCCC2)CC1	10*	4	-1.3	-6%	-6.8	nt	nt
50	CCOC(=O)CSc1nnc(COc2ccc3ccccc3c2)o1	-3.3	3	0.9	16%	0.6	nt	nt
51	O=C1NC(=O)N(Cc2ccccc2F)C1=O	2.3	3	-0.4	-1%	-1.4	0.64	7.5
52	O=C(CN1CCN(S(=O)(=O)c2ccc(F)cc2)CC1)Nc1ccccc1F	0.3	9	0.8	3%	0.9	0.76	5.8
53	Cc1nnsc1C(=O)N/N=C/c1cccc(C(F)(F)F)c1	-8.8	7	-0.2	nt	-3.1	nt	nt
54	Oc1c(Cl)cc(Cl)cc1C1=NNC(c2ccc(Cl)cc2)C1 (stereo unspecified)	nt	15	nt	?	4.6	0.68	4.5
55	CN(C)c1ccc(/C=C2\CCC/C(=C\c3ccccc3)C2=O)cc1	3.0	-10	-1.6	nt	106	0.71	6.7
56	CC(C)Nc1nc(SCC(N)=O)nc(N2CCOCC2)n1	3.4	-9	0.8	7%	2.8	0.68	1.8
57	Clc1ccc2c(NCc3ccccc3)ccnc2c1	-1.6	6	-0.2	0%	8.1	0.57	-3.2
58	CSc1nc2sc3c(c2c2nnnn12)CCCC3	-3.7	-4	-0.5	-17%	2.2	0.73	-21
59	CCOC(=O)C(=CN=C(N)Nc1nc2ccccc2o1)C(=O)OCC	2.7	4	0.2	3%	-1.9	0.66	-104
60	Cc1cc(N2CCN(Cc3cn(C)nc3-c3cccc(Cl)c3)CC2)cc(C)n1	1.6	7	0.5	nt	-37	0.71	5.9
61	CCC(C)[C@H](NC(=O)NC1CCN(Cc2ccccc2)CC1)C(=O)OC (stereo partly specified)	-10	-1	-1.0	18%	1.7	0.74	1.9
62	COc1ccc(NC(=O)N2CCOCC2)cc1	-2.0	6	-0.9	nt	-0.6	0.7	5.0
63	CC1CCCN(CCC(=O)Nc2ccc3c(c2)CCC3)C1 (stereo unspecified)	-2.6	-2	1.9	2%	3.1	0.72	1.7
64	CSc1ccccc1-c1nnc(-c2ccc(C)cc2)o1	1.5	10	-2.5	-4%	-2.1	0.78	-4.2
65	OCC[C@@H]1C[C@@H](O)[C@H](O)[C@@]2(Cc3ccccc3O2)O1	-4.5	0	-0.1	nt	-0.1	nt	0.7
66	CS/C(=C\[N+](=O)[O-])Nc1ccc(F)cc1	5.4	2	-0.5	3%	1.9	nt	3.7
67	CC(=O)c1ccc(S(=O)(=O)N2CCN(C(=O)c3ccc(-n4cncn4)c([N+](=O)[O-])c3)CC2)cc1	8.2	0	0.8	11%	0.8	0.67	0.3
68	Cc1cc(C)n(NC(=S)NC2CCCCC2)c(=O)c1C#N	2.1	2	-1.1	-5%	2.3	0.65	5.9
69	COC(=O)c1cnn2c(C(F)(F)F)cc(-c3ccccc3)nc12	-8.0	2	-0.3	?	4.4	0.69	-58
70	CCCc1cc(NCC2CCCO2)n2c(nc3ccccc32)c1C#N (stereo unspecified)	5.7	-23	-0.4	4%	-1.9	0.71	i
71	O=c1c2ccccc2ncn1Cc1cccc2ccccc12	-3.6	-6	0.7	2%	4.7	0.69	2.0
72	Cn1nccc1NC(=O)CC1(CC(=O)O)CCCCC1	8.0	-6	-0.1	15%	4.3	0.64	3.8
73	Cc1ccc2nc(N3C(=O)C(O)=C(C(=O)c4ccco4)C3c3cccs3)sc2c1 (stereo unspecified)	-6.4	19	-4.5	-9%&-3%	-1.4	0.66	-4.6

Screening results (PubChem)

Compounds were not picked by outcome, and some 2.1% of all compounds hit somewhere here.
